WNV NS2B-NS3 inh: blocks West Nile virus NS2B-NS3 protease activity; P06935; WNV NS2B-NS3 protease, fluorogenic substrate Ex360/Em465; hits give low values; z-score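 (tested at a level between 10 and 100 µM)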; hit rate 0.18% among 65,000; AID 577;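 active = z-score at -3 or under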;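 note: score is relative to mean and spread of the compound wells of a plate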
Target sequence (P06935 1371-1501 limits assumed): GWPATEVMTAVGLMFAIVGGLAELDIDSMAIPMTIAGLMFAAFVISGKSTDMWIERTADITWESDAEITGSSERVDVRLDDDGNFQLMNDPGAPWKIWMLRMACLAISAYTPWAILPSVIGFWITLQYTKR
Target sequence (P06935 1502-1679 limits assumed): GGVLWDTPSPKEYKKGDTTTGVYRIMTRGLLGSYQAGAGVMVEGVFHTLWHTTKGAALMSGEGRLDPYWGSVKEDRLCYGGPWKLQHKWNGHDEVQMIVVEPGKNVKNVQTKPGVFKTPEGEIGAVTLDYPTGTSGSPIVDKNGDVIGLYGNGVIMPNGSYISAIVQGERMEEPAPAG
MT1-MMP promoter: MT1-MMP gene expression reporter suppression – cell-based, luciferase reporter, luminescence (AID 618). MT1-MMP promoter luciferase reporter cells, luminescence. calls from a first round at 10 µM; hits with a dose series show EC50 in µM. hit rate 0.62% among 87,000;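 active = over half of the reporter light lost at 10 µM or EC50 under 50 µM; inactive = the rest and hits that failed the dose series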;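 note: actives suppress MT1-MMP promoter-driven transcription so potencies describe inhibitors; HT1080 fibrosarcoma cells; overnight exposure; toxic or luciferase-blocking compounds were not removed from the actives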
Hsc70 ATP site: Hsc70 inhibitors, probe displacement, primary screen, biochemical, fluorescence polarization (AID 568) | displacement, % at 20 µM, or IC50 in µM where a hit was titrated | Hsc70 fluorescence polarization, probe displacement; higher % means a stronger effect; strong numbers were not always called active | 83,000 tested, under 10 active;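 active = displacement above 50% without optical interference and an IC50 on retest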;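 note: ATPase domain with a fluorescein-tagged ATP probe; 0% = vehicle and 100% = excess ADP; read after one hour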
Numbers without * were called inactive; i = inactive; . = not tested or not shown.

Results follow in this order: WNV NS2B-NS3 inh | MT1-MMP promoter | Hsc70 ATP site
Cc1cc(NCCC(C)C)n2nc(C)c(-c3ccccc3)c2n1
    . | i | 4.1%
O=[n+]1cc(-c2ccccc2)n([O-])c2c1CCC2
    -0.34 | i | -4.1%
CC(=O)Nc1nonc1NC(C)=O
    1.4 | i | 3.8%
CC1CCN(C(c2ccc(N(C)C)cc2)c2nnnn2C(C)(C)C)CC1 (stereo unspecified)
    -1.4 | i | -2.4%
COCCNS(=O)(=O)c1cc(Br)ccc1OC
    . | i | 0.0%
O=C(Cc1coc2ccc3ccccc3c12)Nc1nccs1
    . | i | -2.6%
CCCOc1ccc(N2CC(C(=O)NC(C)C)CC2=O)cc1 (stereo unspecified)
    1.7 | i | 1.9%
Cc1ccc2nc(-c3ccc(NC(=O)c4ccco4)cc3)[nH]c2c1
    -0.79 | i | -4.3%
COC(C(=O)Nc1cccc(F)c1)c1ccccc1 (stereo unspecified)
    -0.07 | i | -1.3%
O=C(O)c1ccccc1C1=Nc2ccc(O)cc2Oc2cc(O)ccc21
    0.08 | i | 74%
CCOc1ccc(-n2cc(C(=O)Nc3cccc(OC)c3)c3cc(OC)c(OC)cc3c2=O)cc1
    . | i | -5.7%
COCCNC(=O)C(c1cccc(OC)c1)N(Cc1cccs1)C(=O)Cn1nnc2ccccc21 (stereo unspecified)
    0.25 | i | 3.5%
CC/C(=N\O)C(C)(C)/[N+]([O-])=C/c1ccc(Br)cc1
    0.02 | i | 5.8%
Cn1c(=O)n(C)c2cc(C(=O)c3ccccc3)ccc21
    -0.32 | i | -8.2%
CC(C)(C)n1nnnc1C(c1cccnc1)N(Cc1ccccc1)Cc1cccs1 (stereo unspecified)
    . | i | 7.4%
COc1ccccc1-c1n[nH]c(=S)n1-c1ccccc1
    -1.2 | i | 5.3%
Cc1nc(/N=C(\N)Nc2ccccc2)nc2ccccc12
    -0.37 | i | -3.0%
COc1ccccc1N1C(=O)C2ON(c3ccccc3)C(c3ccc(N(C)C)cc3)C2C1=O (stereo unspecified)
    -0.12 | i | -1.1%
Cc1cc(C)nc(Sc2c(C)n[nH]c2C)n1
    -1 | i | 0.2%
Cc1ccc(N2C(=O)CC(N3CCN(C4CCc5ccccc5C4)CC3)C2=O)cc1 (stereo unspecified)
    0.11 | i | -0.6%
Cc1ccc(N2CCCn3c2cc(C)c(C#N)c3=O)cc1C
    . | i | -1.6%
CCn1c(SCC(=O)Nc2ccc(OC)c(OC)c2)nnc1-c1cccs1
    -0.37 | i | 1.8%
COc1ccccc1-c1c(C)nn2c(C)cc(C)nc12
    0.82 | i | 3.1%
Cn1c(=O)[nH]c(=O)c2c1nc(N1CCCC1)n2CCCSc1nc2ccccc2o1
    -0.42 | i | 2.0%
COc1ccc(CCN2C(=O)c3[nH]nc(-c4ccccc4O)c3C2c2ccc(C)cc2)cc1OC (stereo unspecified)
    -0.24 | i | 6.6%
O=C(CC(CC(=O)c1ccccc1)C(=O)O)c1ccccc1
    -0.68 | i | -3.3%
Nc1c2c(nc3ccn(-c4ccccc4)c(=O)c13)CCCCC2
    0.8 | i | 2.9%
COc1ccc(S(=O)(=O)N2CCN(Cc3c[nH]c4ccccc34)CC2)cc1
    -0.19 | i | -3.1%
O=C(CSc1nc2ccccc2c(=O)n1CC1CCCO1)NCC1CCCO1 (stereo unspecified)
    0.74 | i | 1.2%
CC(C)n1c(N2CCN(CC(=O)NCc3cccs3)CC2)nc2ccccc21
    -0.64 | i | -0.8%
Clc1cccc2sc(N3CCCCC3)nc12
    -1.4 | i | 0.5%
COCCCn1c(=NC(=O)c2ccc3c(c2)OCO3)c(C#N)cc2c(=O)n3cccc(C)c3nc21
    0.37 | i | -17%
Cn1c(=O)[nH]c(=O)c2c1nc(N1CCCCC1)n2CCSc1nc2ccccc2o1
    -1.1 | i | -1.2%
CCOC(=O)c1c(C)[nH]c(C(=O)OCC(=O)N2CCN(S(=O)(=O)c3ccccc3)CC2)c1C
    1.3 | i | 2.4%
COc1ccc(S(=O)(=O)Nc2ccc(S(=O)(=O)N3CCCCC3)cc2)cc1C
    . | i | -2.7%
C=CCc1c(C)c(C#N)c2nc3ccccc3n2c1NCCN(C)C
    0.44 | i | 1.7%
Cc1cccc(C)c1NC(=O)/C(C#N)=C/c1cccs1
    . | i | 1.7%
Cc1ccc(C(C(=O)NC(C)(C)C)N(CC2CCCO2)C(=O)Cn2nnc(-c3ccc(C)o3)n2)cc1 (stereo unspecified)
    0.18 | i | 3.2%
O=c1c2cc(N3CCOCC3)ccc2[nH]c(=S)n1CCCN1CCN(c2ccccc2F)CC1
    -0.25 | i | -0.4%
Cc1nc2c(Cl)cccc2[nH]1
    . | i | 3.5%

A draw from above in order of length of the SMILES, largest number first.
Results follow in this order: WNV NS2B-NS3 inh | MT1-MMP promoter | Hsc70 ATP site
CCOC(=O)c1c(C)[nH]c(C(=O)OCC(=O)N2CCN(S(=O)(=O)c3ccccc3)CC2)c1C
    1.3 | i | 2.4%
COCCCn1c(=NC(=O)c2ccc3c(c2)OCO3)c(C#N)cc2c(=O)n3cccc(C)c3nc21
    0.37 | i | -17%
Cn1c(=O)[nH]c(=O)c2c1nc(N1CCCCC1)n2CCSc1nc2ccccc2o1
    -1.1 | i | -1.2%

(continued)
Results follow in this order: WNV NS2B-NS3 inh | MT1-MMP promoter | Hsc70 ATP site
COc1ccc(C(=O)NC2CC3CCCC(C2)N3CC(C)C)cc1OC (stereo unspecified)
    0.18 | i | -8.5%
Cc1csc(-c2cnn(-c3ccccc3)c2NC(=O)c2ccccc2)n1
    0.37 | i | -0.9%
CCOC(=O)c1c(N)sc(C(=O)N2CCOCC2)c1C
    0.79 | i | 1.6%
CCN(CC)c1ccc(NC(=O)CN2CCN(CC(=O)Nc3ccc(F)cc3)CC2)cc1
    -0.2 | i | 2.7%
CCOC(=O)C(NC(=O)CC)(Nc1ccc(S(=O)(=O)Nc2ncccn2)cc1)C(F)(F)F (stereo unspecified)
    2.1 | i | 0.5%
CC(=O)c1ccc(NC(=O)c2noc3c2CCCCC3)cc1
    -0.76 | i | -7.6%
ON1C2CCCCC2N(O)C1c1ccccc1C(F)(F)F (stereo unspecified)
    . | i | -2.7%
CC(C)CO/C(=N/S(=O)(=O)c1ccccc1)c1ccccc1
    . | i | 49%
O=C(CSc1ncc(-c2ccc(F)cc2)n1Cc1ccco1)Nc1ccc2c(c1)OCO2
    -0.39 | i | -6.3%
CCN1CCN(C(c2cccnc2)c2cc(Cl)c3cccnc3c2O)CC1 (stereo unspecified)
    . | i | 3.6%
CCn1c(SCC(=O)Nc2ccccc2C(=O)OC)nnc1-c1ccc(N)cc1
    0.09 | i | -11%
CCn1c(C)c(C(C)=O)c(N2CCC(C(N)=O)CC2)nc1=S
    1.6 | i | 4.9%
O=C(CSc1nnc(Cc2cccs2)n1Cc1ccco1)Nc1ccc(Br)cc1
    -1 | i | 4.9%
CCCN1c2cccc3cccc(c23)S1(=O)=O
    -0.59 | i | -5.2%
Cc1ccc(S(=O)(=O)NC(=O)c2cccn2C)cc1
    . | i | 0.7%
Cc1ccc(-c2nc3cc(NS(=O)(=O)c4ccc(C)cc4)ccc3o2)cc1
    . | i | -5.7%
CCOC(=O)NC(=O)CSc1nnc(C)s1
    0.19 | i | -0.2%
N#Cc1c(N)oc(-c2ccccc2)c1-c1ccccc1
    -0.43 | i | -3.3%
Cc1oc(-c2ccccc2)cc1C(=O)Nc1ccc2ccccc2c1
    . | i | -4.0%
O=C1CCCN1c1ccc(S(=O)(=O)NCCOc2ccccc2)cc1
    . | i | 3.5%
Cn1nnnc1SCCNS(=O)(=O)c1ccccc1
    -0.59 | i | 2.1%
CCOC(=O)COc1c(-c2ccc(OC)cc2)oc2ccccc2c1=O
    . | i | 0.1%
COC(=O)C1=C(CSc2nnnn2C)NC(=O)NC1c1cc(C)ccc1C (stereo unspecified)
    -0.75 | i | 3.2%
Cc1ccc(C)c(SCC(=O)OCC(=O)Nc2ccc(S(=O)(=O)N3CCOCC3)cc2)c1
    -0.61 | i | -3.6%
COc1ccccc1-c1nnc(NC(=O)C(C)C)s1
    -0.47 | i | -2.7%
CCOC(=O)c1c(C)n(C)c2ccc(OC)c(NC(=O)c3cccs3)c12
    0.88 | i | -9.7%
CCOC(=O)c1ccc(NS(=O)(=O)c2cccc3nsnc23)cc1
    -0.08 | i | -2.7%
COc1ccc(N=C2C(=Nc3ccc(OC)cc3)N(c3ccccc3)C(=S)N2C(=O)c2ccc(Cl)cc2)cc1
    . | i | 5.5%
COCc1[nH]nc2c1C1(C(=O)Nc3ccc(F)cc31)C(C#N)=C(N)O2 (stereo unspecified)
    0.51 | i | 0.9%
O=C(Cn1cnc2ccccc2c1=O)N(Cc1ccco1)c1ccc(O)cc1
    -0.32 | i | 1.2%
Cc1ccc(S(=O)(=O)NCC(=O)N(CC(=O)NC2CCCCC2)Cc2ccco2)cc1
    -0.16 | i | -0.7%
COc1ccccc1NC(=O)CSc1nnc(C)n1Cc1ccccc1
    -0.42 | i | -8.0%
CC(=O)Nc1nc(-c2ccccc2)nc(C)c1C(C)=O
    -0.47 | i | 4.2%
COC(=O)C(NC(C)=O)(Nc1ccc(Br)cc1)C(=O)OC
    0.19 | i | 2.3%
O=C(NCC1COc2ccccc2O1)c1cn(Cc2ccc(F)cc2)nn1 (stereo unspecified)
    0.54 | i | -1.6%
CCCCn1c(-c2ccco2)nc2ccccc2c1=O
    . | i | 0.6%
Cn1c(=O)c2c(nc(SCCN3CCCCC3)n2Cc2ccccc2)n(C)c1=O
    0.06 | i | -1.4%
COc1ccc(N2C(=O)CCC(C(=O)N3CCC(C(N)=O)CC3)C2c2ccc(F)cc2)cc1 (stereo unspecified)
    -0.4 | i | 6.7%
Cc1sc2nc(SCC(=O)c3cc(C)n(CC4CCCO4)c3C)n(C(C)C)c(=O)c2c1C (stereo unspecified)
    -0.84 | i | 30%
C=CCn1c(SCc2nc3c(c(=O)[nH]c(=O)n3CCCC)n2CCC)nnc1-c1ccccc1
    1.2 | i | 2.5%
CCCCOc1ccc(CN(C)c2ncnc(N)n2)cc1
    -0.22 | i | -4.3%
Cc1[nH]c2ccc(-c3nnc(SCC(=O)N4CCCc5ccccc54)o3)cc2c1C
    -0.34 | i | 0.2%
CCN(CC)Cc1c(O)ccc2c(=O)c(-c3ccc4c(c3)OCCO4)coc12
    . | i | -3.4%
Cc1c(NS(C)(=O)=O)c(=O)n(-c2ccccc2)n1C
    0.98 | i | 5.6%
CCOC(=O)Cc1csc(NC(=O)c2ccc3c(c2)OCO3)n1
    -0.14 | i | 5.2%
COc1ccc(N(CC(O)CN2CCCCC2)S(=O)(=O)c2ccc(C)cc2)cc1 (stereo unspecified)
    -1.4 | i | 1.2%
Fc1ccccc1CSc1nc2ncc(Br)cc2[nH]1
    . | i | -3.2%
CCCN(CCC)CCNC(=O)c1cc2c(=O)n(C)c3ccccc3c2n1C
    -0.88 | i | -1.0%
COc1ccc(Nc2nc(-c3sc(NC(C)=O)nc3C)cs2)cc1
    . | i | 0.7%
CC(=O)OC(C(=O)NCc1ccc2c(c1)OCO2)c1ccccc1Cl (stereo unspecified)
    1 | i | -3.5%

Next part:
Results follow in this order: WNV NS2B-NS3 inh | MT1-MMP promoter | Hsc70 ATP site
CCOC(=O)c1c(N)sc(=S)c2c1CCC2
    -0.15 | i | 10%
Cc1ccccc1N1C(=O)c2cccc3c(N(C)CCO)ccc(c23)C1=O
    1.1 | i | 62%
CCOc1ccc2[nH]c(=O)c(CN(Cc3nnnn3CCc3ccccc3)CC3CCCO3)cc2c1 (stereo unspecified)
    -0.62 | i | 6.6%
Fc1cccc(Cl)c1Cn1nnc(-c2ccc(N3CCOCC3)cc2)n1
    . | i | 1.5%
COc1ccc(N/C(=N\c2nc(C)cc(C)n2)NC(=O)C(C)C)cc1OC
    1.1 | i | 2.2%
CC1CCN(S(=O)(=O)c2ccc(Br)s2)CC1
    -0.7 | i | -35%
COc1ccc(OC)c(Nc2nc(-c3cccs3)cs2)c1
    -0.6 | i | 1.2%
COc1ccc(CNC(=O)CSc2nnnn2Cc2ccccc2)cc1
    0.72 | i | 4.9%
O=C(O)CCC(=O)N1CCN(c2nc3ccccc3s2)CC1
    1.9 | i | -3.0%
Cc1ccc(S(=O)(=O)N2CCOCC2)cc1C(=O)Nc1c(C)n(C)n(-c2ccccc2)c1=O
    0.04 | i | -0.9%

Next part; it opens with the 4 that closed the last part.
Results follow in this order: WNV NS2B-NS3 inh | MT1-MMP promoter | Hsc70 ATP site
COc1ccc(OC)c(Nc2nc(-c3cccs3)cs2)c1
    -0.6 | i | 1.2%
COc1ccc(CNC(=O)CSc2nnnn2Cc2ccccc2)cc1
    0.72 | i | 4.9%
O=C(O)CCC(=O)N1CCN(c2nc3ccccc3s2)CC1
    1.9 | i | -3.0%
Cc1ccc(S(=O)(=O)N2CCOCC2)cc1C(=O)Nc1c(C)n(C)n(-c2ccccc2)c1=O
    0.04 | i | -0.9%
N#Cc1c(/N=C/c2cc(Br)cs2)sc2c1CCC2
    . | i | -2.8%
CC1CN(C(=O)Cn2cnc3c2c(=O)n(C)c(=O)n3C)CC(C)O1 (stereo unspecified)
    0.13 | i | -7.2%
COCCn1c(CN2CCN(c3ccc(OC)cc3)CC2)nc2c1c(=O)n(C)c(=O)n2C
    -0.0033 | i | -16%
N#Cc1c(NC(=O)CCC(=O)O)sc2c1CCCC2
    -0.39 | i | -2.9%
CC(C)Cn1c(=O)[nH]c2ccccc21
    . | i | 5.3%
c1csc(-c2nn3c(C4CCCCC4)nnc3s2)c1
    -1.6 | i | -5.3%
N#CC1=C(N)OC2=C(C(=O)CCC2)C12CCN(C(=O)OCc1ccccc1)CC2
    0.31 | i | 6.7%

Screening results (PubChem)

Only part of the results is shown. The share of hits here may be higher or lower than overall.
